GLA inh pH 4.5: blocks human alpha-galactosidase A at pH 4.5. P06280. purified enzyme, 4-MU-alpha-Gal fluorescence, pH 4.5. activity change, negative = inhibition, % at 105 µM. 230,000 tested, under 10 active. AID 1467; inconclusive = small, poorly fitted or top-dose-only inhibition, or a rising curve; inactive = flat fitted curve, though single readings scatter; no compound was filed as active;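 note: 0% = full activity with enzyme and -100% = basal without enzyme; dose as in the result columns while the protocol names 77 µM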
miR-21 FLuc: miR-21 reporter, rising signal | 340,000 tested, under 10 active | Potency, µM (titrated, usually from 38.3 µM), without a hit: at the top dose reporter change, positive = more light | HeLa miR-21 FLuc reporter, luciferase, 48 h; active = well fitted rising curve with a large enough effect; inconclusive = small, poorly fitted or top-dose-only effect; inactive = no such curve, though single readings can be large or run the other way;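 note: % of control where 0% means no effect; miR-21 action dims this reporter so a rising signal means less miR-21 action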
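HeLa cells endogenously expressing miR-21, stably carrying CMV-driven firefly luciferase with a downstream miR-21 binding site, 2000 cells/well. Titrations up to approximately 40 uM, 48 hours; luciferase luminescence read.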
Rango complex inh: inhibitors of Rango-importin beta complex formation; Rango CFP/YFP FRET sensor + importin beta, 45 min; Potency, µM (doses to about 92.2 µM), inactives show at the top dose inhibition of complex formation; 0.031% of 340,000 active; active = rising FRET ratio curve, often small or poorly fitted; inconclusive = mostly compound fluorescence or quenching in the first reads; inactive = flat curves in all reads;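 note: potency is the fitted concentration of half-maximal effect; 0% = DMSO wells and 100% = buffer wells lacking importin beta; nearly all actives have a fitted effect of over 15% in size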
Target sequence (Q14974 whole entry, looked up): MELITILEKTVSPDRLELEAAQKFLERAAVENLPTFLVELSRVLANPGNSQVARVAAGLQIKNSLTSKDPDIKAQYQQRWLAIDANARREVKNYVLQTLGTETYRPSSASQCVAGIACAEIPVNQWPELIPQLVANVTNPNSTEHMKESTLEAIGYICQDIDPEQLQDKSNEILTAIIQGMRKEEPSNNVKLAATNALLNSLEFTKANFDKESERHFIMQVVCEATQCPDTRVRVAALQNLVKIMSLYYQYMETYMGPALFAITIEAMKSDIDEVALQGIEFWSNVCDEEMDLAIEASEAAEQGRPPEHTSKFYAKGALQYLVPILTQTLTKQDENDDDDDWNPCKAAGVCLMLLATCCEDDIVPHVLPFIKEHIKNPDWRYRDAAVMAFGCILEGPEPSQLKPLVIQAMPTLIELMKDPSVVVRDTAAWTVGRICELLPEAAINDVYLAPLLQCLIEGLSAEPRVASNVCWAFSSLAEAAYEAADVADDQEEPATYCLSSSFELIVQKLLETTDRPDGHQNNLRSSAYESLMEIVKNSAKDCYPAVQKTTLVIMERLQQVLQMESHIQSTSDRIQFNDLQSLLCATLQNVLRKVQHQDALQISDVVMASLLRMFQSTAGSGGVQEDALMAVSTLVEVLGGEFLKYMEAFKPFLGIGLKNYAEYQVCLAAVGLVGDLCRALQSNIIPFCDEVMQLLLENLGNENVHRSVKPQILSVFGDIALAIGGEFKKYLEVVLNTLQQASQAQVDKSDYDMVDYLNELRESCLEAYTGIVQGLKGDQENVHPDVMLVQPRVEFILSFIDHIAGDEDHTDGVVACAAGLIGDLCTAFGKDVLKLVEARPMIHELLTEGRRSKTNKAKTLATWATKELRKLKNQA
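Inhibition scored from the CFP 486 nm/YFP 530 nm FRET ratio 45 min after adding 0.125 microM importin beta to 50 nM Rango biosensor preincubated 5 min with compound (room temperature, PBS with DTT, Tween-20, BSA). No-importin wells as positive control.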
Rango dissoc inh: inhibitors of RanGTP-induced Rango-importin beta complex dissociation. O95149+P62826. Biochemical FRET Rango-importin beta, RanGTP-induced dissociation. Potency, µM (doses to about 46.1 µM), for inactives: at the top dose activity change, negative = inhibition. 0.071% of 340,000 active. AID 540253; active means falling FRET ratio curve, often poorly fitted, with flat reads before Ran was added; inconclusive means other falling curves, or compound fluorescence or quenching; inactive means flat or rising ratio curve;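 note: potency is the fitted concentration of half-maximal effect; % of control where 0% means no effect; nearly all actives have a fitted effect of over 45% in size; -100% = wells without RanGTP and RCC1; the record marks most hits as doubtful in a second field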
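Recombinant Rango FRET biosensor (EYFP–snurportin 1 IBB–cerulean CFP10) at 0.1 uM premixed with 0.25 uM importin beta in PBS, 1 mM DTT, 0.02% Tween-20, 0.1% BSA. Compound added 5 min; RanGTP-RCC1 (0.6 uM Ran, 2 mM GTP, 0.2 uM RCC1) then triggers release, read at 45 min.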
The depositor's hits bear a star; ? = inconclusive; / = no result given.

SMILES | GLA inh pH 4.5 | miR-21 FLuc | Rango complex inh | Rango dissoc inh
Cc1cc(NC(=O)C2CC(c3ccc(F)cc3)=NO2)no1 (stereo unspecified) | -1.9 | -3.7% | -2.9% | 18.7%
O=S(=O)(Nc1cccc(Br)c1)c1cccc2nsnc12 | / | -5.2% | 4.3% | -10.4%
COc1ccc(NC(=O)CN(C)C(=O)c2ccc3c(c2)NC(=O)CS3)cc1 | / | / | -1.4% | -15.6%
O=C(CSc1nnc(Cc2ccccc2)o1)c1ccc2c(c1)OCO2 | / | / | -1.5% | -1.2%
COc1ccc(N(C(=O)C(C)C)S(=O)(=O)c2cccs2)cc1 | 5.8 | 20.8% | 0.3% | -3.9%
Cc1nn(Cc2ccccc2)c(Cl)c1C(=O)OCC(=O)NC(=O)NC12CC3CC(CC(C3)C1)C2 | -7.5 | -0.4% | -0.3% | 8.1%
CCNc1c(NS(=O)(=O)c2ccc(OC)cc2)c(=O)oc2ccccc12 | / | -7.6% | 2.5% | 9.4%
COC(=O)C1=C(C)N(C)C(=O)NC1c1cccc2ccccc12 (stereo unspecified) | / | -2.1% | 1.6% | 24.5%
Cc1ccnc(NC(=O)C(C)N2C(=O)c3ccccc3S2(=O)=O)c1 (stereo unspecified) | / | / | -0.7% | -8.5%
Cc1ccc(-n2c(=O)c3c4c(sc3n3c(=S)[nH]nc23)CCC4)cc1 | -5.6 | -1.0% | -0.5% | 1.6%
Cc1ccc(Sc2c(CO)c(-c3ccccc3)nn2C)cc1 | -19.0 | 16.5% | -1.6% | -8.1%
CCCSC1=C(C#N)C(c2ccccc2OCC)CC(=O)N1 (stereo unspecified) | -5.2 | -8.5% | -6.0% | -5.7%
Cc1ccc(N(CCC#N)C(=O)COC(=O)c2cc(C)no2)cc1 | / | / | 0.8% | 4.5%
O=C(NCCc1ccccc1)c1ccc(Cl)c(S(=O)(=O)N2CCOCC2)c1 | / | -6.8% | 0.0% | -6.0%
Cc1ccc(C(=O)OCC(=O)NC2CCCc3ccccc32)o1 (stereo unspecified) | / | / | -1.7% | 4.1%
COc1ccccc1NC(=O)Cn1c(=O)c(N(C)C)c(N)n(C)c1=O | -9.6 | -1.0% | 0.0% | -2.3%
CC(=O)c1cccc(N(C(=O)CNC(=O)c2ccco2)C(C(=O)NC2CCCC2)c2ccco2)c1 (stereo unspecified) | / | -2.0% | 0.5% | -3.4%
CCOC(=O)C1CCCN(C(=O)CCNS(=O)(=O)c2ccc(Br)cc2)C1 (stereo unspecified) | / | / | -1.0% | 1.9%
Cn1c(=O)[nH]c(=O)c2c1nc(N/N=C/c1ccncc1)n2Cc1ccc(Cl)cc1 | -5.5 | 0.6% | -4.5% | 17.1%
O=C(CSc1ccc(Cl)cc1)NNC(=O)c1ccco1 | / | -4.7% | 1.1% | 2.0%

Structures above containing an aryl thioether with sulfur outside any ring, in the order listed:
SMILES | GLA inh pH 4.5 | miR-21 FLuc | Rango complex inh | Rango dissoc inh
O=C(CSc1nnc(Cc2ccccc2)o1)c1ccc2c(c1)OCO2 | / | / | -1.5% | -1.2%
Cc1ccc(Sc2c(CO)c(-c3ccccc3)nn2C)cc1 | -19.0 | 16.5% | -1.6% | -8.1%
O=C(CSc1ccc(Cl)cc1)NNC(=O)c1ccco1 | / | -4.7% | 1.1% | 2.0%

More entries follow:
SMILES | GLA inh pH 4.5 | miR-21 FLuc | Rango complex inh | Rango dissoc inh
COc1ccc(C2C(C(=O)c3ccco3)=C(O)C(=O)N2CCCn2ccnc2)c(OC)c1 (stereo unspecified) | / | -9.6% | -3.0% | 3.5%
COc1ccc(C(C)=O)cc1COC(=O)c1cc(=O)c2ccccc2o1 | / | 6.4% | -1.1% | -12.8%
O=S(=O)(c1ccc2c(c1)OCCO2)N1CCN(c2cccc(Cl)c2)CC1 | 5.0 | -1.0% | 0.8% | 34.5%
CN(Cc1c(C(=O)N/N=C/c2cccc(F)c2)nnn1-c1nonc1N)c1ccccc1 | / | -7.6% | 5.7% | 0.8%
Cc1cc(C)c(S(=O)(=O)N2CCCCC2)c(C)c1-n1ncnn1 | -5.9 | -1.6% | -4.9% | 30.5%
O=C(O)C1CC1c1ccc(Br)cc1 (stereo unspecified) | -5.1 | -4.7% | ? | -8.9%
O=C(/C=C/c1cccc(Br)c1)N1CCN(c2ccccn2)CC1 | 5.9 | -5.3% | -2.5% | -16.1%
COc1ccc(NS(=O)(=O)c2cc(NC(=O)C(CC(C)C)NC(N)=O)ccc2N2CCOCC2)cc1 (stereo unspecified) | / | / | 3.6% | 16.2%
O=C(COC(=O)CCSc1ccc(Cl)cc1)NCc1ccccc1 | -6.8 | -6.4% | -3.6% | -16.1%
Cn1c(Nc2ccccc2)cc(=O)n(C)c1=O | / | -11.7% | 0.0% | 5.7%
Cc1c(NC(=O)C(C)OC(=O)c2c3c(nc4ccccc24)CCC(C)C3)c(=O)n(-c2ccccc2)n1C (stereo unspecified) | / | / | 0.1% | -11.1%
Cc1ccc(NC(=O)COc2cccc3ccc(C)nc23)c(Br)c1 | -0.7 | -4.6% | 0.3% | 18.7%
C=CCOc1ccc(/C=N/NC(=O)C2CCCC2)cc1OCC | / | -8.1% | 0.7% | -7.6%
COc1ccc(N2CCN(C(=O)c3csc4ccccc34)CC2)cc1 | -1.9 | -6.6% | 0.7% | 4.5%
CN(C)Cc1ccccc1C1(O)c2ccccc2CSc2ccccc21 (stereo unspecified) | -3.4 | 26.2% | 1.5% | 16.0%
Cc1ccc2c(c1)C1CN(C)CCC1N2C(=O)c1ccccc1NS(=O)(=O)c1ccc(F)cc1C (stereo unspecified) | -3.7 | 0.9% | 2.2% | 3.4%
CC(=O)Nc1ccc(-c2nnn(CC(=O)Nc3ccc4c(c3)OCO4)n2)cc1Cl | 3.8 | 1.0% | -0.2% | 7.4%
O=C(O)c1cccc(S(=O)(=O)N2Cc3ccccc3C2)c1 | -0.5 | 0.4% | 0.1% | 15.7%
CCOC(=O)/C(=N\Nc1cccc(C(F)(F)F)c1)N1CCOCC1 | -2.8 | -10.5% | -0.1% | 10.8%
CC(C)C(NC(=O)c1ccco1)C(=O)NCC(c1ccco1)N(C)C (stereo unspecified) | -2.0 | -22.6% | -5.4% | -14.7%
O=C(COc1cccnc1[N+](=O)[O-])Nc1ccc2c(c1)CCC2 | 10.2 | -40.1% | 0.0% | 11.7%
O=C(Nc1ccc(Cn2nnc3ccccc32)cc1)c1ccco1 | 16.0 | -26.2% | -0.6% | -14.7%
COc1ccc(Cl)cc1NC(=O)CN(C)C(=O)c1cc(=O)c2ccccc2o1 | / | / | 0.0% | -17.3%
CCC(=O)Nc1ccc2c(c1)Cc1cc([N+](=O)[O-])ccc1-2 | / | / | ? | ?
CN1CCCC(OC(=O)c2cccc(Cl)c2)C1 (stereo unspecified) | 1.9 | -1.8% | -0.3% | -5.2%
NC(=O)CSc1nnnn1CC(CC(=O)O)c1ccccc1 (stereo unspecified) | -0.9 | -12.1% | -1.8% | 0.5%
O=C(NCc1cccnc1)c1ccc(COc2ccccc2Br)o1 | -10.6 | 18.4% | 1.8% | 13.2%
COc1cccc(/C=C2\SC(=S)N(c3cccnc3)C2=O)c1OC | -2.3 | -1.3% | -3.1% | 2.4%
CC(=O)c1cn(N(C)c2ncc(C(F)(F)F)cc2Cl)c(=O)[nH]c1=O | -1.9 | -3.7% | 0.1% | -1.0%
O=C(CC1SC(N2CCOCC2)=NC1=O)Nc1ccccc1F (stereo unspecified) | / | / | -1.2% | -7.2%
CN(C)S(=O)(=O)c1cccc(NC(=O)NCCCl)c1 | 3.3 | 1.9% | 0.1% | ?
COc1ccccc1CN(Cc1nc2ccccc2c(=O)[nH]1)S(=O)(=O)c1ccc2ccccc2c1 | 2.1 | ? | -2.2% | 1.0%
O=C(CCC(=O)N1CCc2ccccc2C1)NCCc1ccc(Cl)cc1 | / | -1.3% | 2.5% | 11.0%
OCCSc1c(F)c(SCCO)c(SCCO)c(F)c1SCCO | -9.9 | -3.2% | -9.8% | -18.2%
O=C(c1ccc2snnc2c1)N1CCCCC1 | -0.5 | -10.0% | -2.0% | -12.4%
CCCCN(CC)C(=O)CSc1nc2ccccc2c(=O)n1CC1COc2ccccc2O1 (stereo unspecified) | -2.9 | -3.1% | 2.4% | 1.9%
COC(=O)c1ccc(CN2CCN(C(C)C)C(CCO)C2)cc1 (stereo unspecified) | 2.9 | -6.5% | 4.2% | -9.0%
COC(=O)[C@@H](NC(=O)c1ccc2c(c1)S(=O)(=O)c1ccccc1C2=O)C(C)C | / | -15.6% | -4.0% | 10.7%
COc1ccc(C(=O)C[n+]2ccc3ccccc3c2C)cc1 | -3.7 | -26.0% | 4.6% | 6.3%
c1ccc(Cn2c3ccccc3c3nnc(SCCN4CCCCC4)nc32)cc1 | -7.9 | 2.1% | -0.3% | 10.1%

Ordered by value in Rango dissoc inh (smallest number first): some entries from above.
mol | Rango dissoc inh
CCOC(=O)C1CCCN(C(=O)CCNS(=O)(=O)c2ccc(Br)cc2)C1 (stereo unspecified) | 1.9%
COc1ccc(C(=O)C[n+]2ccc3ccccc3c2C)cc1 | 6.3%
CN(C)Cc1ccccc1C1(O)c2ccccc2CSc2ccccc21 (stereo unspecified) | 16.0%

Additional structures follow.
SMILES | GLA inh pH 4.5 | miR-21 FLuc | Rango complex inh | Rango dissoc inh
Cc1ccc(/C(N)=N/OC(=O)c2ccc(Cl)cc2Cl)cc1 | -12.1 | -72.0% | -2.4% | -3.4%
Cc1nc(-c2ccc(NC(=O)c3ccccc3Br)cc2)cs1 | -11.9 | -57.0% | -2.3% | 1.8%
Cc1oc(/N=C/c2cccc([N+](=O)[O-])c2)c(C#N)c1C | / | -1.2% | -0.3% | -0.7%
CC(=O)NCCc1c[nH]c2ccc(OCc3ccccc3)cc12 | / | / | 4.1% | -12.7%
CC1CC(C)CN(CCCNC(=O)C2CCCN(c3nnc(N4CCCC4=O)s3)C2)C1 (stereo unspecified) | -13.2 | 0.9% | 4.3% | 20.6%
COc1ccccc1C(O)(C(=O)NNc1ccccc1C)c1ccccc1OC | 5.9 | -1.5% | 9.5% | -0.9%
CCc1ccc(OCC(=O)Nc2ccc(S(=O)(=O)N3CCOCC3)cc2)cc1 | / | / | -0.5% | -0.2%
O=C(O)C1C(c2ccccc2)C(C(=O)N2CCOCC2)C1c1ccccc1 (stereo unspecified) | 6.2 | -0.5% | 0.0% | -1.0%
COc1ccc(S(=O)(=O)Nc2ccccc2C(=O)NN2CCOCC2)cc1OC | / | / | -1.4% | -10.2%
O=C(Nc1cccc(F)c1)C1CCCN(S(=O)(=O)c2ccccc2)C1 (stereo unspecified) | / | 14.4% | -0.5% | -2.6%
COC(=O)c1ccccc1NC(=O)CSc1nnc(-c2ccc(OC)cc2)n1C | 9.1 | -18.6% | 0.1% | 4.4%
Cc1cc2c3c(c1)C(C)CC(C)(C)N3C(=O)C2=O (stereo unspecified) | 8.2 | 7.0% | 1.8% | 7.7%
O=c1c2cc(Br)ccc2[nH]c(=S)n1Cc1ccccc1 | / | 2.7% | -1.0% | 4.6%
O=C(CCN1C(=O)/C(=C/c2ccccc2Cl)SC1=S)NC1CCCC1 | / | 0.2% | -2.9% | 1.4%
N#CCCn1cc(C=O)c(-c2cccs2)n1 | -5.9 | 4.5% | -1.4% | 4.0%
O=C(CN1CCN(c2ccc([N+](=O)[O-])cc2Cl)CC1)N1CCOCC1 | -1.4 | 1.4% | 1.0% | 3.3%
Cc1nn(-c2ccccc2)c(Cl)c1/C=N/NC(=O)c1ccc(NS(=O)(=O)c2cccs2)cc1 | -0.4 | -68.3% | / | /
O=C1CSC(c2ccc(Cl)cc2Cl)N1c1ccccn1 (stereo unspecified) | 4.6 | -14.8% | 1.7% | -17.3%
CN1CCN(c2nc3c(c(=O)n(C)c(=O)n3C)n2Cc2cccc3ccccc23)CC1 | 1.7 | -6.7% | ? | ?
CNC(=O)[C@H]1O[C@@H](n2cnc3c(NCc4cccc(I)c4)nc(Cl)nc32)[C@H](O)[C@@H]1O | / | / | 5.1% | 2.5%
Cc1cccc(NC(=O)CN2C(=S)NC(C)(C)CC2C)c1 (stereo unspecified) | -2.2 | -11.6% | 1.5% | 7.5%

Screening data deposited in PubChem by National Center for Advancing Translational Sciences (NCATS).

A portion of the library; rates above refer to the full screens.
